Screens from PubChem BioAssay.
D2 agonist = human D2 receptor agonism in beta-arrestin assay | P14416 | DiscoveRx PathHunter D2 beta-arrestin, luminescence, 90 min; 100% = 57 uM dopamine signal | activation, % (test concentration not listed) | 0.084% of 360,000 active | AID 624465; in the data active = activation above about 40%; inconclusive = about 15% to 40%; inactive = below about 15%; also: compound concentration not given in the record; the text of the record calls up to 30% inactive
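DiscoveRx PathHunter D2 beta-arrestin cells (2,100/well) attached overnight, then compound-stimulated 90 min at 37 C in HBSS/10 mM HEPES/0.1% Tween-20 buffer; beta-galactosidase complementation read by luminescence after 1 h at ambient temperature. Dopamine 57 uM final (EC100) as control.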
D2 PAM = positive allosteric modulators of human D2 dopamine receptor | P14416 | DiscoveRx D2 beta-arrestin cells, luminescence, 90 min; 100% = 57 uM dopamine signal | potentiation, % (concentration not given with the values) | 0.23% of 360,000 active; active = potentiation of 50% or more; inconclusive = 30% to 50%; inactive = 30% or less;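 also: compound concentration not given in the record; tested on top of an EC20 dose of dopamine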
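D2 cells co-treated with compound plus 50 nM dopamine (EC20) for 90 min at 37 deg C to detect potentiation. Beta-arrestin recruitment was read as enzyme-fragment luminescence after 1 h at ambient temperature. Full response was set by 57 uM dopamine.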
CtBP-E1A blk = blocks the CtBP interaction with E1A; AlphaScreen GST-E1A/His-CtBP binding, 1536-well; hits give low values; control for the full effect not named in the record; activity change, % (no concentration beside the values); 0.49% of 340,000 active; in the data active means activity change below about -65%; inconclusive means about -30% to -65%; inactive means above about -30%; also: % is scaled to controls: 0 for no effect and ±100 for the full control effect; compound concentration not given in the record
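Protein mix (5X: 125 nM each GST-E1A, His-CtBP) was incubated with pinned compound 2 h at 37 deg C in dark, in 50 mM Tris pH 8.0 buffer with 300 mM NaCl. Glutathione donor and nickel acceptor beads followed; AlphaScreen signal read after 1 h.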
Sfp PPTase inh = blocks B. subtilis Sfp PPTase activity; Q9F4F7; Potency, µM, for inactives: max response, negative = inhibition, most hits filed as inhibitors; 3.5% of 310,000 active; Biochemical Sfp PPTase activity, qHTS; active = well fitted inhibition curve with a large enough effect; inconclusive = small, poorly fitted or top-dose-only effect, or another doubt; inactive = no such curve, though single readings can be large or run the other way;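 also: the enzyme is Sfp with the accession as filed and its product quenches rhodamine fluorescence; potency is read from the fitted curve at half-maximal effect; 0% = enzyme reaction without inhibitor and -100% = no enzyme wells; top concentration of the series not given in the record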
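Fluorescence-quenching assay: 15 nM Sfp-PPTase preincubated 15 min at room temperature with compound, then 5 uM rhodamine-CoA and 12.5 uM BHQ-2-labelled YbbR peptide added. Fluorescence (ex 525/em 598 nm) read at start and after 30 min; difference gives rate.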
Six1-Eya2 blk = Six1/Eya2 interaction inhibition. Q15475+O00167. AlphaScreen GST-Six1/His-Eya2 binding, biochemical; hits give low values; control for the full effect not named in the record. activity change, % (no concentration beside the values). 0.56% of 360,000 active. AID 651725; in the data active = activity change below about -65%; inconclusive = about -30% to -65%; inactive = above about -30%; also: % is scaled to controls: 0 for no effect and ±100 for the full control effect; compound concentration not given in the record
Target sequence (O00167 whole entry, looked up): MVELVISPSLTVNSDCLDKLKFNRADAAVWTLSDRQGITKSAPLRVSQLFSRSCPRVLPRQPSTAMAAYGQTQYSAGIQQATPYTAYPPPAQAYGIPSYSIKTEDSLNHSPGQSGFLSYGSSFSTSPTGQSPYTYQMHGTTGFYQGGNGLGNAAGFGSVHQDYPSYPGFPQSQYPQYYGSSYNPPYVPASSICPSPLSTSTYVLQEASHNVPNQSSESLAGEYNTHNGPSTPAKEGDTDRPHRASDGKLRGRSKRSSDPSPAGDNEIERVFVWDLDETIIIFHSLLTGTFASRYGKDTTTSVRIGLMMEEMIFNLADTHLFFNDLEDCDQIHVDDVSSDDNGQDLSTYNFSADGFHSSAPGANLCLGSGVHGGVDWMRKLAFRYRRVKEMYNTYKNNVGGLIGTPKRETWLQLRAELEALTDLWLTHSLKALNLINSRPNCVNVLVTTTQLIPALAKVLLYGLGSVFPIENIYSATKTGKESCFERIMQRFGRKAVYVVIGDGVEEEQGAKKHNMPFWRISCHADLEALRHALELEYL
Target sequence (Q15475 whole entry, looked up): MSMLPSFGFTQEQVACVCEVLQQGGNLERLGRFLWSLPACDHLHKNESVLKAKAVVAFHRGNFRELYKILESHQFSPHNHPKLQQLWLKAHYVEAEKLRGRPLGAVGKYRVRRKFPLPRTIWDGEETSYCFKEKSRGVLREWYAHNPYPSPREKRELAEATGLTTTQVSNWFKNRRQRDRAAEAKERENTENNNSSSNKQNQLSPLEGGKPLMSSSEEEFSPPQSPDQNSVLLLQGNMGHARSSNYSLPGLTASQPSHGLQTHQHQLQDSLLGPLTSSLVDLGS
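GST-Six1 + His-Eya2 (5X stock: 250/500 nM); Tris pH 8.0, 300 mM NaCl, 0.05% BSA, 0.02% Tween 20; GSH donor/Ni acceptor beads; 1 h 37 °C dark; AlphaScreen readout.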
PINK1 expr mod = modulators of PINK1 expression; PINK1 immunofluorescence, high-content cytometry, 24 h; Potency, µM (series often up to 76.6 µM), without a hit: top-dose activation (PINK1 increase), hits mostly activators; 0.2% of 410,000 active; AID 624263; active = well fitted activation curve with a large enough effect; inconclusive = small, poorly fitted or top-dose-only effect; inactive = flat fitted curve, though single readings scatter; cell line not stated here;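 also: potency is read from the fitted curve at half-maximal effect; % of control where 0% means no effect; nearly all actives have a fitted effect of over 65% in size; a mitochondrial uncoupler was the plate control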
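PINK1 protein level read as immunofluorescence by microplate cytometer in a fixed, stained stable cell line after 24 h exposure to five compound concentrations, with CCCP as control.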
TRPV1 PAM = human TRPV1 potentiation | TRPV1-expressing cells, Fluo-8 calcium influx, capsaicin EC20 potentiation; host cell line not named in the record; control for the full effect not named in the record | 0.02% of 320,000 active | AID 540277 | potentiation, % at 8.33 µM | Q8NER1; active means potentiation above 80%; inconclusive means 30% to 80%; inactive means below 30%; also: 0% is about no effect
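TRPV1-expressing cells were cultured overnight at 35.5C and loaded with Fluo-8 calcium dye for 40 to 90 min at room temperature. After a 10 s baseline, compound was added and calcium influx was read kinetically for 3 min (ex 480/em 520 nm).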
* = called active by the depositor; ? = inconclusive; nt = no result given; [ ] = dose if it differs, or a comment.

SMILES,D2 agonist,D2 PAM,CtBP-E1A blk,Sfp PPTase inh,Six1-Eya2 blk,PINK1 expr mod,TRPV1 PAM
CCCCCC(=O)N1C[C@H](O)[C@@H](n2cc(C3CC3)nn2)C[C@@H]1c1ccc(OC)cc1,-1.2,-5,7,nt,-1,1.1%,nt
O=C(COc1ccc(Br)cc1)N1CCCCCC1,0.2,3,-23,4%,-8,-1.5%[38.3 µM],nt
O=C(Nc1ccc(Cl)cc1)Nc1ccc(N2CCOCC2)cc1,1.9,21,-2,9%,0,4.0%,?
Cc1cccc(N2CCN(C(=O)c3cc(S(=O)(=O)N4CCOCC4)cn3C)CC2C)c1 (stereo not given),0.1,-2,-4,9%,2,-0.5%,-4
CC1CCc2sc3c(c2C1)c(=O)n(CC(=O)O)c(=O)n3Cc1ccc(Cl)cc1 (stereo not given),-2.8,-4,-8,-29%,-24,1.5%,-14
Cc1cc(S(=O)(=O)NCCCN2CCOCC2)ccc1Br,4.1,-6,9,nt,4,-0.3%,4
CCS(=O)(=O)N1CCN(c2ccc([N+](=O)[O-])c(N3CCOCC3)c2)CC1,1.4,-23,3,-2%,0,-1.6%,-4
Cc1cccc(C(=O)Nc2ccccc2SCC2CSc3nc4ccccc4c(=O)n32)c1 (stereo not given),-2.3,-4,-1,-8%,2,0.3%,10
O=C(c1ccc2oc(CCCc3ccccc3)nc2c1)N1CCCCC1CO (stereo not given),1.5,-7,-1,1%,1,0.3%,?
O=C(NC1CC2CCCC(C1)N2C(=S)Nc1ccccc1)C1CC1 (stereo not given),2.2,-2,5,18%,4,6.3%,2
COC(=O)C1=C(C)NC(=O)C1(Nc1nccs1)C(F)(F)F (stereo not given),-1.2,-30,5,8%,2,-2.6%,2
Cc1c(Cl)c([N+](=O)[O-])nn1CCCC(=O)NCCc1ccccc1,-3.5,-19,nt,6%,2,-0.8%,-14
O=C(Cn1nnc(-c2ccccc2)n1)NCc1ccc2c(c1)OCO2,-0.9,0,20,?,-1,1.4%,8
CNc1cccc(-c2cc(OC)ccc2OC)n1,-5.7,-21,-10,nt,-12,0.0%,nt
CC(C)(C)c1csc(NC(=O)CSC2=NCCS2)n1,-0.2,-6,-2,5%,9,-1.6%,-6
COc1ccc(C2=NCCc3cc(OC)c(OC)cc32)cc1,-0.4,-21,3,17%,-5,5.3%,-2
CCOC(=O)C1=CCN(S(=O)(=O)c2ccc(F)cc2)C1c1cccc(C)c1 (stereo not given),-2.0,3,5,nt,3,2.3%,nt
Cc1ccccc1-n1c(C)nnc1SCC(=O)NCC1CCCO1 (stereo not given),-2.3,-14,-7,14%,-18,9.6%[38.3 µM],-5
Cc1nc(Cl)c2oc3ccccc3c2n1,-0.7,-3,-20,18%,-15,3.2%,14
O=C(CN1C(=O)NC2(CCCC2)C1=O)Nc1ccccc1F,-2.3,-1,4,16%,5,7.8%[38.3 µM],2
Cc1nn2c(N3CCCC3)cc(C(C)C)nc2c1-c1ccccc1,-1.0,-5,22,-5%,10,3.8%,-19
C=CCC(CC=C)(NC(=O)c1ccccc1C)c1ccccc1,-2.0,-27,3,13%,2,2.3%,-8
COc1ccc(CNC(=O)c2cc(C)nn2-c2ccccc2)cc1,-2.2,-3,10,12%,3,2.4%,3
Cc1cc2ccccc2n1CCNC(=O)c1ccc(Br)o1,5.3,-6,-21,13µM*,-25,2.1%,0
COc1cccc(CNc2nc3cc(-c4ccc(OC)cc4C)sc3c(=O)n2C)c1,-6.9,4,1,nt,-7,3.7%,nt
CCOc1cccc(NC(=O)CC#N)c1,-4.4,-3,0,-4%,5,-0.9%,1
CC1CCCC(NC(=O)CNCc2ccccc2F)C1C (stereo not given),-0.4,-29,2,-25%,1,-0.5%,-20
CCOC(=O)N1CCC(N2Cc3cccc(C(=O)NCc4ccc(C)cc4)c3C2=O)CC1,3.5,1,-1,-16%,0,-0.7%,-13
CNC(=O)NC(=O)C(C)OC(=O)c1ccc(Cl)c(S(=O)(=O)Nc2ccc(F)cc2)c1 (stereo not given),-1.1,-1,0,-2%,1,3.6%,9
Clc1ccc(Cc2nnc(-c3ccccc3Br)o2)cc1,-2.0,-3,13,2%,19,1.0%,-6
O=C(O)c1cn[nH]c1-c1cccc([N+](=O)[O-])c1,0.4,1,2,15%,-12,1.9%,-11
COc1ccc(/C=c2\sc3nc(=O)c(C)nn3c2=O)c(OC)c1,0.7,-1,nt,0%,-9,1.3%,5
Cc1cc(-n2c(SCC(=O)Nc3ccc(F)c(F)c3)nc3n[nH]c(C)c3c2=N)ccc1Cl,-0.8,-4,nt,20%,17,1.8%,2
N#Cc1ccc(Sc2nc3ccccc3[nH]2)cc1C#N,-1.8,18,-14,23%,-17,2.0%,?
Cc1ccc(NC(=O)C2OCCc3ccccc32)cc1C (stereo not given),-4.1,-7,-9,19%,13,4.7%,-14
CN1CCN(C(=O)C2CC(=O)N(c3ccc(Cl)cc3)C2)CC1 (stereo not given),2.7,-2,5,9%,1,-1.3%,1
Cc1ccc(NC(=O)[C@@]2(CC(=O)O)CC(/C=C/c3ccccc3)=NO2)c(C)c1,3.6,-9,12,17%,3,1.6%,-3
O=C(O)CN(C1CCCCC1)S(=O)(=O)c1ccc(F)cc1,-2.7,-4,-5,23%,0,-0.6%,4
Nc1cc(N)nc(SCC(=O)Nc2ccccc2N2CCOCC2)n1,-3.2,-4,-2,4%,7,-2.2%,-4
Cc1cccc(/C=N\NC(=O)c2ccccc2-n2cccc2)c1,-1.5,-1,3,8%,-8,-0.6%,10
COC(=O)Cn1c(C(=O)N2CCCC2)cc2c1C[C@H]1CN(C(=O)c3ccccc3)[C@@](Cc3ccc(OC)cc3)(C(=O)OC)[C@@H]21,nt,nt,0,nt,-8,1.5%,nt
Cc1ccc(OCCC(=O)Nc2ccccc2C(=O)NC2CC2)cc1,-6.3,-4,9,-4%,24,0.5%,5
CC(C)CN(CCCNC(=O)CN1C(=O)COc2ccc(S(=O)(=O)N3CCCC3)cc21)CC(C)C,-6.6,-6,-1,3%,6,2.6%,3
CCC1c2ccc(C)n2CCN1C(=O)Nc1ccccc1C(=O)OC (stereo not given),-2.3,-8,-1,-5%,2,-0.4%,9
C[C@@H]1CN([C@@H](C)CO)C(=O)CCCn2nncc2CO[C@@H]1CN(C)C(=O)Nc1ccccc1,-2.6,0,-1,nt,-1,0.3%,nt
CCOC(=O)CCCCC(=O)c1[nH]c(=O)[nH]c1CSc1nc(-c2ccccc2)c(C#N)c(=O)[nH]1,1.1,-6,0,?,-7,nt,?
COc1ccc(-c2nnc(SCC(=O)OC3CCCCC3)o2)cc1OC,0.3,0,7,-29%,3,1.4%,-12
COC(=O)c1cc2ccc(OC)cc2c2cc(OC)c(OC)cc12,?,nt,?,nt,?,3.9%,nt
Cc1nc(N)nc(N)c1-c1ccc(Cl)c(Cl)c1,-2.2,-15,0,nt,-8,-1.0%,nt
CCCc1nnc(SCC(=O)Nc2ccc(OC)cc2)o1,-3.6,-1,-12,23%,-7,-0.9%,-10
O=S1(=O)CCO[C@H]2Cc3ccccc3[C@H]2N1Cc1cccc(F)c1,-5.4,-1,-13,3%,0,-1.3%,20
CCOC(=O)C1/C(=N\O)CC(C)(O)C(C(=O)OCC)C1c1ccc(OC)c(OC)c1 (stereo not given),-2.1,4,7,7%,-1,-1.0%,20
COc1ccc(NC(=O)C2CCC(C)(C(=O)O)C2(C)C)cc1 (stereo not given),-0.9,-2,7,14%,3,2.2%,10
O=C(Nc1cccnc1Cl)c1cc([N+](=O)[O-])ccc1Cl,8.6,12,-1,8%,-2,0.9%,-7
CCCCCN(C(=O)CCC(=O)OCc1cccc(Br)c1)c1c(N)n(CCCC)c(=O)[nH]c1=O,-4.5,-22,10,nt,1,4.5%,12
C1N2CN3CN1CN(C2)C3,-2.1,12,-11,2%,8,0.1%,nt
Cc1c(-n2c(-c3ccccc3Cl)n[nH]c2=S)c(=O)n(-c2ccccc2)n1C,4.1,-8,6,?,5,-0.1%,-2
Cc1ccc(S(=O)(=O)N2CCN(C(=O)COC(=O)C3(C)CC3(Cl)Cl)CC2)c(C)c1 (stereo not given),1.3,5,5,nt,-2,1.4%,6
COc1ccc(NC(=O)c2cc(C3CCCCN3S(=O)(=O)c3cccs3)on2)c(C)c1 (stereo not given),-4.3,-1,-7,nt,-17,-1.0%,nt
COC(=O)NC(NS(=O)(=O)c1ccccc1)(C(=O)OC)C(F)(F)F (stereo not given),0.0,-5,7,8%,15,1.4%,-5
CC(=O)Nc1cccc(NC(=O)CSc2nccn2Cc2ccc(F)cc2)c1,0.1,-19,2,11%,4,2.0%,2
Cc1ccccc1C(=O)N1CCC(C(=O)Nc2ccc3c(c2)OCCO3)CC1,-1.8,-13,-3,5%,0,-2.7%,9
O=C(O)C1(Nc2ccc([N+](=O)[O-])cc2[N+](=O)[O-])CCCC1,-1.2,16,-12,nt,4,0.2%,nt
